# Assay outcomes as filed in PubChem.
# YopH PTP inh: inhibitors of Yersinia enterocolitica YopH tyrosine phosphatase; fluorescence Ex485/Em525; inhibition, %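 (about 10 µM by stock and volumes)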; 0.16% of 140,000 active; AID 898;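 active = inhibition of 50% or more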;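 also: controls were vehicle for no effect and minimum signal wells for full effect; inactives centre near -20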
# Arbovirus inh: arbovirus infection inhibition; AID 1251; arbovirus infection cell-based antiviral screen; 0.37% of 200,000 active; inhibition, % at 10 µM;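 active = inhibition from about 30%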;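 also: bluetongue infection of BSR cells; cell survival read as ATP light after 72 h; 0% = infected wells without compound and 100% = uninfected wells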
# Arbovirus inh repeat: also measured in Arbovirus inh; calls as there; inhibition, %; measured here: 10K subset replicate screen; many hits read low in the repeat;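 first of two repeat runs on a subset; 0% = infected and 100% = uninfected wells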
# An asterisk follows results filed as active; x = no result given.
SMILES,YopH PTP inh,Arbovirus inh,others
O=C(c1ccc(S(=O)(=O)N2CCC(c3nc4ccccc4s3)CC2)cc1)N1CCCCC1,1,x,
CCC(=O)OC1=C2C(=Nc3c(c(=O)n(C)c(=O)n3C)C2c2ccccc2)c2ccccc21 (stereo not drawn),-18,x,
COc1cccc(/C=C/C(=C2\C(=O)N(c3ccccc3)N=C2C)c2ccc(Br)cc2)c1OC,-41,x,
COc1cc2nc(SCC(=O)NC3CC3)n(CCC3=CCCCC3)c(=O)c2cc1OC,-17,x,
Cn1c(=O)[nH]c(=O)c2c1nc(N1CCOCC1)n2CCSc1ncccn1,-5,x,
CCn1cc(C(=O)Nc2cc3c(cc2NC(C)=O)OCCO3)c(=O)c2ccc(C)nc21,8,x,
Cn1nc(-c2ccc(N3CCOCC3)c(NC(=O)c3ccccc3)c2)c2ccccc2c1=O,7,x,
COCCn1c(COc2ccccc2)nnc1SCC(N)=O,-11,x,
O=C(CSc1nnc(-c2ccc(S(=O)(=O)N3CCCC3)cc2)o1)N1CCCC1,-7,x,
O=C1CCc2nc3sc4c(c3c(=O)n2N1)CCCC4,-25,x,
CC(C)C1N=C2c3ccccc3N=C(SCc3cc(=O)n4ccccc4n3)N2C1=O (stereo not drawn),-3,x,
COc1ccccc1OCc1nc2c3c(-c4ccccc4)c(-c4ccccc4)oc3ncn2n1,-14,x,
CCOC(=O)c1cn2c3c(c(F)c(F)cc3c1=O)SC(N1CCOCC1)=N2,36,x,
O=C(NC1=NCCS1)c1cccc(S(=O)(=O)N2CCCCC2)c1,-41,x,
Cc1nc(NC2=NCN(CCN3CCOCC3)CN2)nc2c(C)cccc12,-9,x,
Cc1ccc(C2(C)NC(=O)N(CC(=O)NC(=O)NC3CCCC3)C2=O)cc1 (stereo not drawn),-43,x,
Cc1sc2c(c1C)c(=O)nc1scc(C)n12,-8,x,
CC(=O)c1c(C)n(C(C)C)c2ccc(O)cc12,-12,x,
CCOC(=O)c1sc(NC(=O)CSc2nc(-c3ccco3)cc(C(F)(F)F)n2)c(C(=O)OC(C)C)c1C,-9,x,
Cn1c(=O)c2c(nc(SCC(=O)N(C3CCCCC3)C3CCCCC3)n2C)n(C)c1=O,-25,x,
CC1CC(C)CN(c2nc3c(c(=O)[nH]c(=O)n3C)n2CCCSc2nc3ccccc3s2)C1 (stereo not drawn),-26,x,
CCCCP(=O)(c1ccccn1)c1ccccn1,-43,x,
CCN(CC)CCCN1C(=O)C(=O)/C(=C(/O)c2cnn(-c3ccccc3)c2C)C1c1ccncc1 (stereo not drawn),-21,x,
CCN(CC)CCCN1C(=O)C(O)=C(C(=O)c2ccc(C)o2)C1c1ccco1 (stereo not drawn),-35,x,
N#Cc1cc2c(=O)n3ccccc3nc2n(CC2CCCO2)c1=N (stereo not drawn),31,x,
# (cont.)
SMILES,YopH PTP inh,Arbovirus inh,others
Cc1ccc2c(C)nc(NC3=NCN(C(C)C)CN3)nc2c1,12,x,
CC1(C)CC(=O)c2cc(C(=O)N3CCCCC3)c(=O)n(-c3ccc(Cl)cc3)c2C1,2,x,
CCCCCc1c(O)nc(SCC(=O)O)[nH]c1=O,-23,x,
CN(C=O)CP(=O)(O)CCN1CCCC1=O,-71,x,
CCc1c(C)nc(/N=C(/NC(=O)c2ccccc2)Nc2ccccc2OC)[nH]c1=O,-12,x,
Fc1cccc(-c2cc3nc4c(c(N5CCN(c6cnccn6)CC5)n3n2)CCCC4)c1,-14,x,
CCC(=O)Nc1ccc(-c2nn3c(C)nnc3s2)cc1,17,x,
COC(=O)Cc1cc(=O)[nH]c(/N=C(/NC(=O)c2ccccc2)Nc2ccccc2C)n1,15,x,
Cn1nnnc1SCC(=O)Nc1ccc(Cl)cc1Cl,-48,x,
O=C(NCCN1CCOCC1)c1cc2cc(Cl)cc(Cl)c2oc1=O,-31,x,
Cc1ccc(C(=O)C2=C(O)C(=O)N(CCN(C)C)C2c2ccccn2)o1 (stereo not drawn),-27,x,
O=C(O)C(CC(=O)N1CCOCC1)NCc1ccccc1 (stereo not drawn),-29,x,
CCCCOc1ccc(C(=O)CCNC(C(=O)O)C(C)CC)cc1 (stereo not drawn),-4,x,
O=C(CN1CCOCC1)N1CCN(C(=O)CN2CCOCC2)CC1,-18,x,
O=C(NCCCN1CCOCC1)c1cc2cc(Cl)cc(Cl)c2oc1=O,-60,x,
Cc1nnc2sc(-c3ccc(NC(=O)c4cccnc4)cc3)nn12,2,x,
Cn1c(=O)c2c(-c3ccncc3)c3c(nc2n(C)c1=O)-c1ccccc1C3=O,13,x,
CN(C(=O)Cn1c(=O)n(CCCCC(=O)NC2CCCC2)c(=O)c2ccccc21)C1CCCCC1,-21,x,
Cc1cccc2c(=O)oc(-c3ccc4c(c3)C(=O)N(CC3CCCO3)C4=O)nc12 (stereo not drawn),2,x,
CCOC(=O)c1ccc(-n2nc(C(F)(F)F)c3c(C)cc(=O)oc32)cc1,32,x,
Cc1cc(C(=O)CSCc2nnc3n(CCC(C)C)c(=O)c4ccccc4n23)c(C)n1C,-19,x,
Cc1nnc(SCC(=O)NCCc2ccccc2)[nH]c1=O,-34,x,
Cc1cc(NCCN2CCOCC2)n2ncc(-c3ccc(Cl)cc3)c2n1,7,x,
CC1=C(C)C(=O)NC(Nc2nc(C)c3cc(C)cc(C)c3n2)N1 (stereo not drawn),-23,x,
Cc1ccc2cc(C(c3nnnn3CC3CCCO3)N3CCCC4(CCCCC4)C3)c(=O)[nH]c2c1 (stereo not drawn),-121,x,
# (listing goes on)
SMILES,YopH PTP inh,Arbovirus inh,others
N#Cc1c2c(c(N3CCN(c4ccccn4)CC3)n3c1nc1ccccc13)CCC2,3,x,
Cc1nn(Cc2ccc(C(=O)Nc3ccc(Br)c4cccnc34)o2)c(C)c1Br,-7,x,
Cc1nn2c3c(cnc2c1-c1ccccc1)C(=O)CC(C)C3 (stereo not drawn),-7,x,
Cc1ccc(C2C(C(=O)c3sc(-c4ccccc4)nc3C)=C(O)C(=O)N2CCN(C)C)o1 (stereo not drawn),4,x,
O=c1c2ccc(-c3nnc4n3-c3ccccc3SC4)cc2nc2n1CCCCC2,-11,x,
COCCn1c(=O)c2c3c(sc2n(CC(N)=O)c1=O)CCCC3,-28,x,
Cc1cc(C)n2nc(SCc3cc(=O)n4ccccc4n3)nc2n1,-3,x,
CC(=O)OC(C(=O)Nc1ccccc1C)C(OC(C)=O)C(OC(C)=O)C(OC(C)=O)C(=O)Nc1ccccc1C (stereo not drawn),-18,x,
CC1CCN(Cc2nc3c(c(=O)n(C)c(=O)n3C)n2Cc2c(F)cccc2Cl)CC1,2,x,
CCc1ccc(C(C(=O)NC2CCCCC2)N(C(=O)CNC(=O)c2ccco2)c2cccnc2)cc1 (stereo not drawn),2,x,
CCN(CC)CCCN1C(=O)C(=O)/C(=C(/O)c2ccc3c(c2)OCO3)C1c1ccccn1 (stereo not drawn),-15,x,
O=C(c1ccc2c(c1)c(=O)oc1ccccc12)N1CCCCC1,-87,x,
Cc1nn2c3ccccc3nc2n(Cc2ccccc2)c1=O,-12,x,
Cc1ccc(C2c3c(oc4ccccc4c3=O)C(=O)N2c2nnc(C)s2)o1 (stereo not drawn),-28,x,
CCCC(C)C1C(C#N)=C(N)Oc2cc(C)oc(=O)c21 (stereo not drawn),-38,x,
Cc1nnc(N2CCN(c3ccccc3)CC2)c2nn(-c3ccccc3F)c(C)c12,-7,x,
Cc1cc(C)nc(-n2c(Nc3ccccc3)cc(=O)c3c(C)n(-c4ccccc4)c(=O)nc32)n1,-34,x,
O=C(CSc1ncnc2ccccc12)N1CCN(c2ccccc2)CC1,-8,x,
COC(=O)c1cc(OC)c(OC)cc1NC(=O)c1cc(C)on1,8,x,
O=c1nc2n(c3sc4c(c13)CCC4)Cc1ccccc1-2,x,-7,Arbovirus inh repeat=-3
CC1CCN(C(=O)CSc2ccc3nnc(-c4cccc(F)c4)n3n2)CC1,x,-7,Arbovirus inh repeat=-8
Cc1nc(N2CCN(Cc3ccc4c(c3)OCO4)CC2)c2oc3ccccc3c2n1,x,7,Arbovirus inh repeat=-6
CCOc1ncccc1C(=O)OCC(=O)Nc1cc(C(=O)OC)ccc1C(=O)OC,x,7,Arbovirus inh repeat=-1
Cn1c(=O)c2c(c3ccccc31)OC(=O)CC2c1cccnc1 (stereo not drawn),x,-1,
Cc1ccc(C2c3c(oc4ccc(C)cc4c3=O)C(=O)N2CCCN2CCOCC2)cc1 (stereo not drawn),x,0,Arbovirus inh repeat=5
# Following part
SMILES,YopH PTP inh,Arbovirus inh,others
CCOC(=O)c1sc(NC(=O)C2CCCO2)c(C(=O)OCC)c1C (stereo not drawn),x,-5,Arbovirus inh repeat=-4
CC1CC(C)CN(c2nc3c(c(=O)[nH]c(=O)n3C)n2CCSc2nc3ccccc3o2)C1 (stereo not drawn),x,0,Arbovirus inh repeat=0
CCOc1ccc(C2c3c(oc4ccccc4c3=O)C(=O)N2c2ccccn2)cc1OC (stereo not drawn),x,5,Arbovirus inh repeat=-2
COc1ccc(C(=O)OCCN2C(=O)c3ccccc3C2=O)cc1OC,x,0,Arbovirus inh repeat=2
O=c1oc2c3c4c(cc2cc1-c1nc2ccccc2[nH]1)CCCN4CCC3,x,2,Arbovirus inh repeat=-10
CC1CCN(c2nc3ccccc3nc2C(C#N)S(=O)(=O)c2ccccc2)CC1 (stereo not drawn),x,1,Arbovirus inh repeat=9
CCCCCCn1c(=O)c(C(=O)Nc2ccncc2)c(O)c2ccccc21,x,18,Arbovirus inh repeat=-2
COc1ccc(C2/C(=C(/O)c3ccc(F)cc3)C(=O)C(=O)N2CCCN(C)C)cc1 (stereo not drawn),x,5,Arbovirus inh repeat=-3
CNC(=O)c1c(NC(=O)c2ccc(S(=O)(=O)N3CCOCC3)cc2)sc2c1CCC2,x,4,Arbovirus inh repeat=4
COc1ccc2oc(C(=O)C3CC3)c(NC(=O)CCCN3C(=O)c4ccccc4C3=O)c2c1,x,-1,Arbovirus inh repeat=10
CCOC(=O)N1CCC(NC(=O)C2CCN(Cc3nc(-c4ccc(CC)cc4)oc3C)CC2)CC1,x,1,Arbovirus inh repeat=0
CCC(CC)C(=O)NCCc1cc2ccc(C)c(C)c2[nH]c1=O,x,-1,Arbovirus inh repeat=2
CCN1CCN(Cc2nc3c(c(=O)n(C)c(=O)n3C)n2Cc2ccc(Cl)cc2Cl)CC1,x,-5,
CCOC(=O)N1CCC(NC(=O)CCc2c(C)nc3c(c(C)nn3-c3ccccc3)c2C)CC1,x,-2,Arbovirus inh repeat=1
CCCCn1c2nc3ccccc3nc2c2c(=N)oc(C)nc21,x,13,Arbovirus inh repeat=7
CCCc1nc(SCC(=O)NCc2ccc3c(c2)OCO3)c2c(=O)n(C)c(=O)n(C)c2n1,x,-5,Arbovirus inh repeat=-7

# 23 structures out of the list, arranged by count of non-hydrogen atoms, ascending.
SMILES,YopH PTP inh,Arbovirus inh,others
CN(C=O)CP(=O)(O)CCN1CCCC1=O,-71,x,
CC(=O)c1c(C)n(C(C)C)c2ccc(O)cc12,-12,x,
CCCCCc1c(O)nc(SCC(=O)O)[nH]c1=O,-23,x,
Cn1nnnc1SCC(=O)Nc1ccc(Cl)cc1Cl,-48,x,
CCC(=O)Nc1ccc(-c2nn3c(C)nnc3s2)cc1,17,x,
Cc1nnc(SCC(=O)NCCc2ccccc2)[nH]c1=O,-34,x,
COCCn1c(COc2ccccc2)nnc1SCC(N)=O,-11,x,
CCCCn1c2nc3ccccc3nc2c2c(=N)oc(C)nc21,x,13,Arbovirus inh repeat=7
O=C(CN1CCOCC1)N1CCN(C(=O)CN2CCOCC2)CC1,-18,x,
O=C(NCCCN1CCOCC1)c1cc2cc(Cl)cc(Cl)c2oc1=O,-60,x,
Cc1ccc(C(=O)C2=C(O)C(=O)N(CCN(C)C)C2c2ccccn2)o1 (stereo not drawn),-27,x,
Cc1ccc(C2(C)NC(=O)N(CC(=O)NC(=O)NC3CCCC3)C2=O)cc1 (stereo not drawn),-43,x,
O=C(CSc1nnc(-c2ccc(S(=O)(=O)N3CCCC3)cc2)o1)N1CCCC1,-7,x,
CC1(C)CC(=O)c2cc(C(=O)N3CCCCC3)c(=O)n(-c3ccc(Cl)cc3)c2C1,2,x,
CNC(=O)c1c(NC(=O)c2ccc(S(=O)(=O)N3CCOCC3)cc2)sc2c1CCC2,x,4,Arbovirus inh repeat=4
CCn1cc(C(=O)Nc2cc3c(cc2NC(C)=O)OCCO3)c(=O)c2ccc(C)nc21,8,x,
Cc1cc(C(=O)CSCc2nnc3n(CCC(C)C)c(=O)c4ccccc4n23)c(C)n1C,-19,x,
Cn1nc(-c2ccc(N3CCOCC3)c(NC(=O)c3ccccc3)c2)c2ccccc2c1=O,7,x,
CCOC(=O)N1CCC(NC(=O)CCc2c(C)nc3c(c(C)nn3-c3ccccc3)c2C)CC1,x,-2,Arbovirus inh repeat=1
Cc1ccc2cc(C(c3nnnn3CC3CCCO3)N3CCCC4(CCCCC4)C3)c(=O)[nH]c2c1 (stereo not drawn),-121,x,
CCc1ccc(C(C(=O)NC2CCCCC2)N(C(=O)CNC(=O)c2ccco2)c2cccnc2)cc1 (stereo not drawn),2,x,
CCOC(=O)c1sc(NC(=O)CSc2nc(-c3ccco3)cc(C(F)(F)F)n2)c(C(=O)OC(C)C)c1C,-9,x,
CC(=O)OC(C(=O)Nc1ccccc1C)C(OC(C)=O)C(OC(C)=O)C(OC(C)=O)C(=O)Nc1ccccc1C (stereo not drawn),-18,x,

# This is a subset; count on the stated rates, not on these rows.
